From PubChem
AF4-AF9 inh – blocks AF4 peptide binding to human AF9 | hit rate 0.47% among 350,000 | AID 651704 | AlphaScreen, biotin-AF4 peptide binding to FLAG-AF9 | P42568 | inhibition, % at 10 µM;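 active means every replicate reaching a set inhibition limit, whatever the replicate mean, cut at about 25% in these data; inconclusive means mean inhibition reaches that limit but some replicates miss it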;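 further: 0% = plate neutral control median and 100% = total signal loss; the record names both 10 and 1 µM as test concentration; the first replicate is given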
Vif A3G – inhibitors of Vif binding to APOBEC3G peptide, primary screen, biochemical, TR-FRET, GST-Vif 1-94, biotin-A3G peptide, dose response retest (AID 1117319); inhibition, %, or IC50 in µM where a hit was titrated; TR-FRET GST-Vif / biotin-A3G peptide binding; higher % means a stronger effect; test concentration not given here; strong numbers were not always called active; hit rate 0.57% among 260,000;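 active means above the screen mean plus three standard deviations and confirmed in dose response; inconclusive means results disagree or hit not tested in dose response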;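 further: Vif residues 1-94 fused to GST binding biotinylated APOBEC3G peptide 110-148; 0% = full assay without inhibitor and 100% = GST in place of GST-Vif; retest series ran down from 100 µM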
FGF22 binding – shifts melting point of recombinant human FGF22. recombinant FGF22 thermal shift, SYPRO orange fluorescence; percent of sucrose octasulfate shift, DMSO zero. AID 651658. calls only at 9.99 µM. hit rate 1.5% among 340,000;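 active means melting point raised past a set limit in the mean and every replicate; inconclusive means no clear call; three in four hits are not shown here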
Target sequence (Q9HCT0 whole entry, looked up): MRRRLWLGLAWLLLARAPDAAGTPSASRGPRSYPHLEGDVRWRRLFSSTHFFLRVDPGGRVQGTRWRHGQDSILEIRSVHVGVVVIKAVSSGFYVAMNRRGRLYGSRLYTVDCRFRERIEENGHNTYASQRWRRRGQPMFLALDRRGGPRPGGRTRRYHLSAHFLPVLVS
E coli growth – blocks Escherichia coli growth; hit rate 0.21% among 330,000; OD600, 23 h; hits give low values; AID 1053175; OD600 absorbance (no concentration beside the values);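 active means OD600 absorbance below the run mean of sample wells minus 3.6 SD, in any replicate, cut at about 0.56 in these data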;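 further: stock transfer was 300 nL into about 60 µL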
UCH37 DUB inh – human UCH37 deubiquitinating enzyme inhibition; Q9Y5K5; hit rate 0.33% among 330,000; inhibition, % (test concentration not listed); AID 588478; purified proteasome/UCH37, Ub-AMC cleavage fluorescence;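 active means mean of two replicates above 20%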;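 further: 0% = compound-free wells with enzyme and 100% = wells lacking proteasome; stock transfer was 100 nL into about 20 µL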
Target sequence (Q9Y5K5 whole entry, looked up): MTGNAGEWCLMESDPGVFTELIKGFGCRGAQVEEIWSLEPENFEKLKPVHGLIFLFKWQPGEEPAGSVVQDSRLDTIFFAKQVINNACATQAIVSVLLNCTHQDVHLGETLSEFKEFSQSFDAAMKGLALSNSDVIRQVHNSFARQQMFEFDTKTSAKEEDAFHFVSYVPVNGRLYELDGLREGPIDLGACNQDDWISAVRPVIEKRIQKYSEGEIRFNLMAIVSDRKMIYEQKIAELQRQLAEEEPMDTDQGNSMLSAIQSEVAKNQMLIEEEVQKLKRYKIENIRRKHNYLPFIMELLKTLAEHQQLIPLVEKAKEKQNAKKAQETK
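Reagent: Ub-AMC substrate; assay system: Proteasome-associated human UCH37 deubiquitinase; controls: no-proteasome and no-compound wells; read-out: % inhibition of Ub-AMC cleavage fluorescence; timing: 30 min preincubation with enzyme, 25 min cleavage at room temperature; signal: AMC fluorescence from Ub-AMC cleavage, excitation 355 nm, emission 460 nm; buffer or medium: Tris-HCl pH 7.4 plus ovalbumin, ATP-MgCl2, DTT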
RanGTP-Impb inh – disruptors of Ran-importin-beta complex formation – biochemical, FRET, CFP-Ran, YFP-importin-beta, homogeneous, primary screen; cell-free CFP-Ran/YFP-importin-beta FRET ratio; inhibition, % (test concentration not listed); hit rate 1.1% among 300,000;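 active means most replicates above 15%; inconclusive means exactly half above 15%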;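 further: 0% = DMSO wells and 100% = Ran loaded with GDP instead of GTP; wells of about 40 µL received 100 nL stock; the first replicate is given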
HNF4A DNA FP – change in binding of human HNF4 alpha to DNA; HNF4a-FITC DNA binding, fluorescence polarization, 1 h; P41235; hit rate 0.3% among 360,000; activity change, % at 10 µM; AID 1224865; in the data active means activity change above about 30%, passing the limit was not always enough;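 further: controls were the assay level and a saturating level of protein; the project sought stronger binding though the title names inhibitors; some compounds called inactive have numbers as strong as hits; positive values seem to mean higher polarization but the record does not say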
Target sequence (P41235 whole entry, looked up): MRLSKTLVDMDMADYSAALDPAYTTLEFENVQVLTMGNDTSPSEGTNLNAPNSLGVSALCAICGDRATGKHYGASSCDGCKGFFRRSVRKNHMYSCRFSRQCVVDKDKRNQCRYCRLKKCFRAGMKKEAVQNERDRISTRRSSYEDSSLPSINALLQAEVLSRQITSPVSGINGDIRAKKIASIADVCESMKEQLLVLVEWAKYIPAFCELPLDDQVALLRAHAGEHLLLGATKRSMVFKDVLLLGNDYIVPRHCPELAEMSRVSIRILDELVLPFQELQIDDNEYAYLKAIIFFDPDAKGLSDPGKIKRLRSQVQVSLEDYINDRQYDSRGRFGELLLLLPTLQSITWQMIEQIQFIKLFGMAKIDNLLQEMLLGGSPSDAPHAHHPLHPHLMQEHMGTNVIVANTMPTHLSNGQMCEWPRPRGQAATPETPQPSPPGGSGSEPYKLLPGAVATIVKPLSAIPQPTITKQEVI
The depositor's hits bear a star; i = inactive; ? = inconclusive; / = not tested or not shown; & = joins results of further samples. Only part of the results is shown (hit frequency here may not be typical).

AF4-AF9 inh	Vif A3G	FGF22 binding	E coli growth	UCH37 DUB inh	RanGTP-Impb inh	HNF4A DNA FP	Molecule
-0.5	-8.7%	i	0.613	-1.4	-2.1	4.5	CCCCn1c(N)c(N(CC(C)C)C(=O)C(C)SCc2nc3sc(C)c(C)c3c(=O)[nH]2)c(=O)[nH]c1=O (stereo unspecified)
1.6	/	i	0.691	-13.4	3.2	0.8	Cc1cccc(C(=O)NNC(=O)c2c(O)c3ccccc3n(C)c2=O)c1
-0.4	-8.4%	/	/	/	?	3.4	Cc1[nH][nH]c(=O)c1C=NCc1cccs1
4.9	?	i	0.493	1.3	1.4	3.3	S=C(NCc1cccnc1)Nc1ccc(Cl)c(Cl)c1
/	17.3%	/	0.635	2.0	2.1	3.6	CCC1CCCCN1C(=O)C1CC(c2cc(Cl)c(OC)cc2OC)=NO1 (stereo unspecified)
-5.1	/	i	/	3.0	/	0.9	C[C@H]1COC(=O)[C@@H](CC(=O)OC(C)(C)C)C/C=C\C[C@@H](CC(=O)N[C@H](CO)Cc2ccccc2)C(=O)N1
/	2.3%	/	0.739	0.9	-2.2	0.7	CCCOc1cc(C)c(Cl)cc1S(=O)(=O)N(CC)CC
1.7	-11.3%	i	0.651	1.0	/	5.5	OCCn1cnc2c(SCc3ccccc3)ncnc21
4.1	15.1%	i	0.7	1.6	?	-3.2	O=C(CCCCCNC(=O)c1ccccc1Br)N=Nc1c(O)[nH]c2ccccc12
/	11.8%	/	0.69	2.3	-1.3	2.3	Cc1cc(C)cc(OCCCC(=O)O)c1
0.0	5.2%	i	0.618	1.2	1.4	-0.1	O=C(O)CCCC(=O)Nc1ccc(OCc2nc3ccccc3s2)cc1
/	3.1%	/	0.713	0.3	-1.5	-4.4	COc1ccc(-n2c(COc3cccc(C)c3)nnc2SCC(=O)NCc2ccco2)cc1
-0.5	/	i	0.682	2.3	2.8	2.3	CC(=O)N1CCN=C1SCc1ccc(C(F)(F)F)cc1
-1.4	-4.8%	i	/	/	/	-1.0	COc1ccc([C@H]2N[C@]3(CCCN(Cc4ccc(F)cc4)C3=O)[C@H]3C(=O)N(C)C(=O)[C@@H]23)cc1
/	-0.6%	/	0.642	-0.2	-4.1	-1.1	CN(C)c1nc(C(=O)Nc2ccccc2)nc(N(C)C)n1
-4.6	/	i	0.645	1.4	/	0.7	CCOC(=O)C1CCCCN1C(=O)c1cc2ccc(OC)cc2c2cc(OC)c(OC)cc12 (stereo unspecified)
-2.0	-4.8%	i	0.712	4.1	1.2	3.5	Cc1cccc2c(=O)c(Br)c(C)n(Cc3ccccc3)c12
-10.5	20.4%	i	/	/	2.2	1.9	C/C(=N/NC(=O)c1ccccn1)c1ccc(O)cc1
-3.0	13.9%	i	0.658	0.2	-0.6	4.0	COc1ccc(C2CC(=O)C(C3NCCc4ccccc43)=C(O)C2n2cncn2)cc1 (stereo unspecified)
/	-0.7%	/	0.748	1.7	-2.7	1.6	CCCCN(C(=O)CNC(=O)c1ccco1)C(C(=O)NC1CCCCC1)c1ccc(OC)cc1OC (stereo unspecified)
-7.5	/	i	/	/	/	2.3	Cc1nc(C(F)(F)F)ccc1C(=O)N1CCC(C)(C(=O)O)C1 (stereo unspecified)
0.1	/	i	0.626	1.6	/	-0.5	Cc1cc(C)cc(OCC(=O)OCC(=O)Nc2cc(S(=O)(=O)N3CCOCC3)ccc2Cl)c1
/	13.2%	/	0.67	-339.9	0.4	-2.8	c1ccc(C2Nc3ccccc3-c3nc4ccccc4n32)nc1 (stereo unspecified)
-1.4	7.2%	i	0.643	2.9	/	/	CC(OC(=O)c1ccc2ncsc2c1)C(=O)N1CCCC1 (stereo unspecified)
8.4	16.0%	i	0.714	7.7	-0.8	1.9	Cc1ncc([N+](=O)[O-])n1CC(=O)NC1CCCC1
/	18.6%	/	0.677	2.6	/	-2.3	CCn1nccc1C(=O)Nc1ccc(S(=O)(=O)NC23CC4CC(CC(C4)C2)C3)cc1
10.2	/	i	0.615	3.3	2.0	2.8	Cc1ccccc1OCCCCCCN1CCNCC1
1.4	-8.1%	i	0.712	-0.3	/	6.0	O=C(CN1CCN(S(=O)(=O)c2ccc(F)c(Cl)c2)CC1)N1CCOCC1
1.6	-2.6%&-7.9%	i	0.708	3.4	1.9	0.8	CCOC(=O)CSc1nnc2n(C3CCCCC3)c(=O)c3c4c(sc3n12)CCCC4
-1.2	-10.9%	i	0.631	-0.4	1.0	2.9	CCOC(=O)CSc1nc(N2CCOCC2)c2c(c1C#N)CC(C(C)C)OC2 (stereo unspecified)
-0.9	5.7%	i	0.721	5.1	-1.8	-2.5	Cc1ccc(N(C)S(=O)(=O)c2ccc(-c3cc(C)no3)s2)cc1
-1.5	-4.2%	i	0.696	11.0	-3.1	-3.2	CCCCOc1ccc(C(=O)N/C(=C/C=C/c2ccccc2)C(=O)O)cc1
-1.1	/	i	0.74	0.8	?	2.1	COc1cc(NC(=O)CCS(=O)(=O)c2ccc3c(c2)n(C)c(=O)c(=O)n3C)cc(OC)c1
2.5	5.1%	i	0.671	1.8	9.4	4.9	O=C(COc1ccc(F)cc1Cl)Nc1ccc(N2CCOCC2)cc1N1CCOCC1
-6.2	?	/	/	8.9	/	-15.2	C/C(C/C(C)=C1/SC(=S)NC1=O)=C1\SC(=S)NC1=O
0.9	/	i	0.688	2.3	/	-1.7	O=C(OCCN1C(=O)c2ccccc2C1=O)[C@@H]1CC(O)CN1S(=O)(=O)c1ccccc1[N+](=O)[O-] (stereo partly specified)

Two consecutive entries from above, quoted:
AF4-AF9 inh	Vif A3G	FGF22 binding	E coli growth	UCH37 DUB inh	RanGTP-Impb inh	HNF4A DNA FP	Molecule
8.4	16.0%	i	0.714	7.7	-0.8	1.9	Cc1ncc([N+](=O)[O-])n1CC(=O)NC1CCCC1
/	18.6%	/	0.677	2.6	/	-2.3	CCn1nccc1C(=O)Nc1ccc(S(=O)(=O)NC23CC4CC(CC(C4)C2)C3)cc1

More entries.
AF4-AF9 inh	Vif A3G	FGF22 binding	E coli growth	UCH37 DUB inh	RanGTP-Impb inh	HNF4A DNA FP	Molecule
8.9	/	i	/	-1.0	/	2.7	CCCCN1C(=N)N([C@@H](C)CN2CCC[C@H]2CN2C(N)=NC[C@@H]2Cc2ccccc2)C[C@H]1[C@H](C)CC
/	0.8%	/	0.765	-0.6	-3.1	-0.5	Cc1ccc(S(=O)(=O)NC(CC(C)C)C(=O)Nc2nccs2)cc1 (stereo unspecified)
-0.5	/	i	0.692	4.4	/	-2.7	COc1ccc(CNC(=O)COC(=O)[C@H](Cc2ccccc2)NC(=O)c2cccs2)cc1
/	8.5%	/	0.671	2.9	6.1	2.4	COc1ccc2nc(NCc3ccccc3)[nH]c2c1
0.3	-1.1%	/	0.688	0.7	/	-0.7	COCCN(C(=O)COC(=O)c1ccco1)c1c(N)n(Cc2ccccc2)c(=O)[nH]c1=O
0.2	/	i	0.694	1.1	/	1.2	COc1cc2cnc(-c3cccnc3)cc2cc1OC
-0.1	/	i	/	/	/	1.3	Cc1c(C(=O)N(C)Cc2ccc(F)cc2)sc(=O)n1Cc1ccc(Cl)c(Cl)c1
4.3	/	i	0.715	3.6	-4.4	6.8	COc1cc(NC(=O)C2=C(C)OCCS2)c(Cl)cc1C(=O)NCCN1CCN(C)CC1
/	1.6%	/	/	/	3.9	-0.9	CC(Oc1ccccc1)c1ccnc2nc(/N=C/N(C)C)nn12 (stereo unspecified)
-0.5	-4.6%	i	0.71	4.1	-1.4	-1.9	CCOC(=O)NC(=O)CSc1nc2ccccc2[nH]1
-2.3	1.0%	i	/	/	2.6	3.3	O=C(Nc1ccccc1)c1cc(S(=O)(=O)Nc2cccnc2)ccc1Cl
-0.9	-2.3%	i	0.688	1.4	2.6	0.7	O=S(=O)(Nc1cccc(-c2ccc(N3CCCCCC3)nn2)c1)c1ccccc1F
-0.9	-3.7%	i	/	/	/	-3.0	COc1ccccc1C=NNc1nc(C)cc(=O)[nH]1
1.6	1.8%	i	0.677	4.0	-1.0	3.4	Cc1cc(OCc2cc(C(=O)N3CCN(CC4CC4)CC3)no2)cc(C)c1Cl
6.1	-5.8%	i	0.694	1.1	11.9	1.0	O=c1cc(N2CCC3(CC2)OCCO3)[nH]c(=O)n1-c1ccc(Cl)cc1
/	/	/	0.702	3.8	-0.8	4.7	O=C(Nc1cccc(S(=O)(=O)N2CCCC2)c1)c1ccc2c(=O)n3c(nc2c1)CCCCC3
-0.3	/	/	0.66	-7.7	10.9	5.2	Cc1cc(C)c2cc(C#N)c(N3CCCN(C(=O)c4cnccn4)CC3)nc2c1
/	3.6%	/	0.676	3.9	0.7	-4.3	N#Cc1nc(Cc2cccc3ccccc23)oc1N1CCN(c2ccccc2)CC1
-5.5	/	i	0.674	-0.3	6.4	0.8	CCc1nc(CNC(=O)C2CCC(=O)N(CCc3cccc(F)c3)C2)no1 (stereo unspecified)
-33.0	16.7%	i	0.701	7.2	4.8	2.6	COCCn1c(N)c(Sc2ccccc2[N+](=O)[O-])c(=O)[nH]c1=O
-0.6	9.9%	i	0.702	0.5	0.8	-0.5	CSc1nc(O)cc(=O)n1-c1ccc(F)cc1
-2.8	/	i	0.715	4.1	0.5	-14.8	COc1ccccc1OC(=O)CCc1nc2ccccc2s1
/	-2.0%	/	0.654	4.8	0.3	-3.8	O=C(COC(=O)C(O)c1ccccc1)NC12CC3CC(CC(C3)C1)C2 (stereo unspecified)
4.2	5.2%	i	0.67	2.4	-5.7	0.6	Cc1ccc2c(c1)c(N=O)c(O)n2Cc1ccc(Cl)cc1
-1.1	/	i	/	/	/	-0.9	CC1(C)CN(CCc2ccccc2)C(=O)[C@H]1CC(=O)Nc1ccc(Br)cc1
4.2	0.5%	i	0.682	2.8	2.1	0.4	Cc1ccc(C(=O)NCCn2ccc3ccccc32)cc1[N+](=O)[O-]
/	-3.1%	/	0.736	3.2	-0.5	2.9	COc1ccc(NC(=O)CCCNS(=O)(=O)c2cccs2)cc1
-0.5	30.5%	i	0.651	1.3	0.2	0.1	CCN(CC)C(=O)Cn1ccc(NC(C)=O)nc1=O
-3.1	8.9%	i	/	/	-1.6	-0.8	Cc1[nH]c2ccccc2c1/C=N/Nc1nncn1N
-3.7	/	i	0.675	-0.7	/	0.9	Cc1cc(C(=O)COC(=O)c2ccc(O)cc2)c(C)n1CC(F)(F)F
/	-19.7%	/	0.662	0.3	-1.4	-1.0	Cc1cc(NC(=O)c2ccc3nc(C)sc3c2)no1
-2.7	-23.6%	i	0.713	2.1	5.7	-1.2	Cc1nc(NC(=O)c2ccc3c(c2)OCO3)ccc1Br
-0.7	3.6%	i	0.726	5.0	-1.5	-3.0	COC(=O)Nc1ccc(S(=O)(=O)N(CCO)CCO)cc1
1.6	-2.3%	i	0.661	-29.5	-2.1	1.8	CCOC(=O)C1CCCN(C(=O)c2cc3cc(OC)c(OC)cc3[nH]2)C1 (stereo unspecified)
/	-3.8%	/	0.732	0.5	1.6	7.1	Cc1noc(C)c1CSCC(=O)NC1=NCCS1
-2.0	19.1%	i	/	/	-4.6	/	O=C(N/N=C/c1cccs1)c1cccc(NC(=O)c2ccc(Cl)cc2)c1
1.9	-11.3%	i	0.701	7.9	2.5	1.7	CCOC(=O)c1cnc2ccccc2c1Nc1cccc(C(=O)O)c1
4.7	/	i	0.678	6.6	-0.3	4.2	O=[N+]([O-])c1ccc(OCCCCN2CCc3ccccc3C2)cc1
1.3	-9.6%	i	0.624	-16.3	?	1.0	CCCn1c2ccccc2c2cnn(CC(=O)N(CC)CC)c(=O)c21
-1.5	1.9%	i	0.669	3.6	2.4	-1.7	O=C(NCCOc1ccccc1)C1CCC(=O)N(CCCN2CCCC2=O)C1 (stereo unspecified)
